Compound activity (PubChem)
VDR inh – Inhibitors of the vitamin D receptor (VDR): qHTS; VDR-SRC2-3 peptide fluorescence polarization, 2 h; Vitamin D3 receptor (Homo sapiens), P11473; Potency, µM, without a hit: max response, negative = inhibition, actives largely listed as inhibitors; AID 504847, 2011; 400,000 tested, 0.93% active; active = well fitted inhibition curve with a large enough effect; inconclusive = small, poorly fitted or top-dose-only effect, or another doubt; inactive = no such curve, though single readings can be large or run the other way; also: series mostly up to about 120 µM
Target sequence (P11473 whole entry, looked up): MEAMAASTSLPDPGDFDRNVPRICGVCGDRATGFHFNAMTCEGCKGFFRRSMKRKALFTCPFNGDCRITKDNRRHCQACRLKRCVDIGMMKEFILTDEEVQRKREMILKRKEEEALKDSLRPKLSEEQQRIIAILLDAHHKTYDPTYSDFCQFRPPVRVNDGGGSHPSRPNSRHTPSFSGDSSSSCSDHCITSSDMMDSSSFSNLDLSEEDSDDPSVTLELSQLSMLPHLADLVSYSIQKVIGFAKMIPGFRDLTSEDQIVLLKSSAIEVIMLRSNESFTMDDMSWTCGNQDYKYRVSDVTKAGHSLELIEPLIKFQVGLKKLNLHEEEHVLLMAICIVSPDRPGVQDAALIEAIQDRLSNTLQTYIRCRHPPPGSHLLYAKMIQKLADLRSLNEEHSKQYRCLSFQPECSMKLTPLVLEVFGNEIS
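Inhibition of the VDR/SRC2-3 peptide interaction is quantified by fluorescence polarization. Compounds (23 nl, pintool) incubate with the reagents for 2 hours at ambient room temperature.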
* hit, by the source's call; ? = inconclusive. % is scaled to controls: 0 for no effect and ±100 for the full control effect; potency is read from the fitted curve at half-maximal effect.

SMILES	VDR inh
Cc1ccc(C(=O)NC2CCS(=O)(=O)C2)cc1S(=O)(=O)N1CCCCCC1 (stereo not drawn)	2%
CCCN1Cc2cccc(C(=O)NCc3ccccc3OC)c2C1=O	6%
CC(C)n1cc(/C=C2/NC(=O)NC2=O)c2ccccc21	5%
O=C(Nc1cccc(S(=O)(=O)N2CCOCC2)c1)C1CCCC1	10%
CCCOc1ccc(CNC(=S)NCc2ccc(OC(C)C)cc2)cc1	-5%
Cc1ccccc1NC(=O)N1CCCN(c2ccc(C#N)cn2)CC1	-7%
CCCOc1ccc(N2CC(C(=O)NCCc3ccc(OC)c(OC)c3)CC2=O)cc1 (stereo not drawn)	-12%
COc1ccc(Nc2nc(C)cc(=O)[nH]2)cc1	-12%
CCOc1ccc(N2C(=O)CC(SC(=NC)Nc3cccc(F)c3)C2=O)cc1 (stereo not drawn)	-15%
NS(=O)(=O)c1ccc(N/N=C/c2cn(-c3ccccc3)nc2-c2cccs2)c([N+](=O)[O-])c1	11%
Cc1c(C(=O)Nc2c(F)cccc2F)sc2ncn(CC(=O)N3CCCCC3)c(=O)c12	-9%
COCCn1c(SCC(=O)Nc2cccc(NC(C)=O)c2)nc2c([nH]c3ccccc32)c1=O	6%
Cc1c(NC(=O)c2ccccc2N)cccc1C(=O)O	9%
CC(=O)C1=C(c2ccccc2)NC(=O)NC1c1ccc2c(c1)OCO2 (stereo not drawn)	14%
O=C(Nc1ccc(F)cc1)c1ccc(Cn2cnnn2)cc1	-20%

Reprinted from the part before: 2 entries, followed by the next part.
SMILES	VDR inh
CC(=O)C1=C(c2ccccc2)NC(=O)NC1c1ccc2c(c1)OCO2 (stereo not drawn)	14%
O=C(Nc1ccc(F)cc1)c1ccc(Cn2cnnn2)cc1	-20%
CCCCCn1c(SCC(=O)c2ccccc2)nc2cc(C(=O)NCc3ccco3)ccc2c1=O	-1%
CSc1nc(O)c(C(c2ccccc2)c2c(O)nc(SC)[nH]c2=O)c(=O)[nH]1	-16%
Cc1ccccc1NC(=O)CCN1C(=O)c2ccccc2C1=O	-2%
CN(C)C(=O)NC(NC(=S)Nc1ccccc1)C(Cl)(Cl)Cl (stereo not drawn)	?
O=c1cc(-c2ccccc2)c2ccccc2[nH]1	7%
CCCn1c(SCC(=O)Nc2cc(Cl)ccc2Cl)n[nH]c1=O	1%
COc1cc([N+](=O)[O-])c(N2CCOCC2)c([N+](=O)[O-])c1OC	9%
Cc1nc(N2N=C(c3ccc(Cl)cc3)CC2c2ccco2)sc1C(=O)N(C)C (stereo not drawn)	8%
CC1CCc2nn(CC(=O)Nc3ccc(F)cc3F)cc2C1 (stereo not drawn)	3%
NS(=O)(=O)c1cccc(NC(=O)CC2(CC(=O)O)CCCC2)c1	4%
COC(=O)c1nc(-c2ccc(C)cc2)oc1N(C)C	-16%
Cc1ccc(S(=O)(=O)N2CCOCC2)cc1NC(=O)COC(=O)Cc1cccs1	-5%
O=C(NCc1ccco1)c1cnn2c(C(F)(F)F)cc(-c3cccs3)nc12	-15%
CCCNC(=O)C1(CC2CC(c3ccccc3)=NO2)CCNCC1 (stereo not drawn)	-5%
CC(C)(C)N(Cc1ccccc1)C(=O)c1cc2ccccc2o1	9%
CCOc1ccccc1C(=O)N1CCN=C1SC	-14%
COc1ccccc1C(=O)Nc1ccc2c(c1)nc1n2CCN(C2CCCCC2)C1	?
CNC(=O)C1(C(F)(F)F)CC(CCCO)CCCO1 (stereo not drawn)	-14%
CCn1nnc(-c2ccccc2NS(=O)(=O)c2ccc(C(=O)OC)cc2)n1	-6%
CCOCCCNC(=O)CN1C(=O)COc2ccc(S(=O)(=O)N3CC(C)CC(C)C3)cc21 (stereo not drawn)	-19%
CCCCN1C(=S)NC[C@@H]1Cc1ccc(O)cc1	-10%
CC1(C)OCC(C2CC(c3ccccc3)NS(=O)(=O)O2)O1 (stereo not drawn)	1%
Nc1[nH]n2c(=O)cc(-c3ccccc3)nc2c1N=Nc1ccc(S(N)(=O)=O)cc1	-5%
Cc1c(-c2cc(C(=O)O)c3ccccc3n2)cnn1C	18%
CCC(Cc1ccccc1)NC(=O)CN1C(=O)COc2ccc(S(=O)(=O)N3CCCCCC3)cc21 (stereo not drawn)	-11%
CN(C)CCOCCOc1ccc(Cl)cc1Br	4%
O=C(Cc1ccccc1)NO	-2%
COc1ccc(C(c2c(C)[nH][nH]c2=O)c2c(C)[nH][nH]c2=O)cc1Br	?
COc1cc(NC(=S)N2CCN(C(c3ccccc3)c3ccccc3)CC2)cc(OC)c1	12%
O=c1nc(SCc2ccccc2Cl)nc(-c2ccc(Cl)cc2)[nH]1	-7%
CCC(=O)Nc1ccc(Nc2nc(Cl)nc(Nc3ccc(NC(=O)CC)cc3)n2)cc1	13%
NC(=O)COc1ccc(/C=C2\C(=O)ON=C2c2ccccc2)cc1	?
O=C(O)/C=C/C(=O)N1CCN(c2ccc(F)cc2)CC1	-6%
COc1ccc(C(=O)NCCCc2nc3ccccc3n2Cc2cc(C)ccc2C)cc1OC	3%
O=C(CN1CCN(S(=O)(=O)c2ccc(F)cc2)CC1)Nc1ccc2c(c1)OCCO2	-17%
COc1ccc(NS(=O)(=O)c2ccc(O)c(C(=O)OCC(=O)NC(C)C3CC4CCC3C4)c2)cc1 (stereo not drawn)	-17%
COc1ccc2c(=O)c(C(=O)NCc3ccccc3)c[nH]c2c1	-1%
COc1ccc(OC)c(CNS(=O)(=O)c2cc(-c3onc(C)c3C)ccc2C)c1	16%
CCC(C(=O)c1ccccc1)N(C(=O)c1ccccc1Cl)N1C(=O)C2C3C=CC(C3)C2C1=O (stereo not drawn)	10%
COc1ccc(C2(C)NC(=O)N(CC(=O)NCc3ccccc3)C2=O)cc1OC (stereo not drawn)	4%
CCC(CC)c1nnc(NC(=O)Oc2ccccc2)s1	5%
CCc1ccc(NC2=NCC(=O)N2c2ccc3c(c2)OCCO3)cc1	1%
COc1ccc(NC(=O)c2cn(-c3ccccc3)nc2SC)cc1	-17%
C=C1Cn2c(nnc2-c2ccc(Cl)cc2)S1	2%
COc1ccc(CCNCC2C(Oc3ccc(Cl)cc3)C(=O)N2c2ccccc2C)cc1OC (stereo not drawn)	-9%

16 structures from above, arranged by length of the SMILES, smallest number first.
SMILES	VDR inh
CCOc1ccccc1C(=O)N1CCN=C1SC	-14%
Cc1c(NC(=O)c2ccccc2N)cccc1C(=O)O	9%
Cc1c(-c2cc(C(=O)O)c3ccccc3n2)cnn1C	18%
CC1CCc2nn(CC(=O)Nc3ccc(F)cc3F)cc2C1 (stereo not drawn)	3%
Cc1ccccc1NC(=O)CCN1C(=O)c2ccccc2C1=O	-2%
CC(C)(C)N(Cc1ccccc1)C(=O)c1cc2ccccc2o1	9%
Cc1ccccc1NC(=O)N1CCCN(c2ccc(C#N)cn2)CC1	-7%
CN(C)C(=O)NC(NC(=S)Nc1ccccc1)C(Cl)(Cl)Cl (stereo not drawn)	?
NC(=O)COc1ccc(/C=C2\C(=O)ON=C2c2ccccc2)cc1	?
NS(=O)(=O)c1cccc(NC(=O)CC2(CC(=O)O)CCCC2)c1	4%
CC(=O)C1=C(c2ccccc2)NC(=O)NC1c1ccc2c(c1)OCO2 (stereo not drawn)	14%
O=C(NCc1ccco1)c1cnn2c(C(F)(F)F)cc(-c3cccs3)nc12	-15%
COc1ccc(C(=O)NCCCc2nc3ccccc3n2Cc2cc(C)ccc2C)cc1OC	3%
COc1cc([N+](=O)[O-])c(N2CCOCC2)c([N+](=O)[O-])c1OC	9%
COc1ccc(CCNCC2C(Oc3ccc(Cl)cc3)C(=O)N2c2ccccc2C)cc1OC (stereo not drawn)	-9%
O=C(CN1CCN(S(=O)(=O)c2ccc(F)cc2)CC1)Nc1ccc2c(c1)OCCO2	-17%

The results go on.
SMILES	VDR inh
Cc1noc(C)c1S(=O)(=O)Nc1ccc(C(=O)N2CCN(c3ccc(Cl)cc3)CC2)cc1	-15%
O=C(CCS(=O)(=O)c1ccc(Br)cc1)Nc1ccc2c(c1)OCO2	-10%
Cc1ccc(C)c(NC(=O)c2ccccc2Sc2ccc([N+](=O)[O-])cc2Cl)c1	-8%
Cc1cccc(C)c1NC(=S)/N=C/N(C)C	?
COC(=O)c1ccccc1S(=O)c1snnc1C (stereo not drawn)	-4%
CCN(CC)c1nc(Nc2ccccc2)nc(Oc2ccc(=O)n(C)n2)n1	7%
COc1ccccc1N(C(=O)c1snc(C(N)=O)c1N)C(C(=O)NC1CCCC1)c1ccco1 (stereo not drawn)	-7%
COc1cccc(C(C)=C2SC(=S)NC2=O)c1	-10%
CCn1c(SCC(=O)N2CCCCC2C)nc2c1c(=O)n(C)c(=O)n2C (stereo not drawn)	-11%
Cc1nc(CNC(=O)CC2C(=O)NCCN2Cc2ccc(F)cc2)cs1 (stereo not drawn)	3%
COc1ccccc1NS(=O)(=O)c1cccc(NC(=O)CCNC(=O)c2ccccc2OC)c1	-14%
C=CCNC(=S)N/N=C/c1ccc(-c2cc(Cl)ccc2Cl)o1	10%
NC(=O)c1nn(Cc2ccccc2)c(=O)c2ccccc12	7%
CN1CC(=O)N(CC(=O)Nc2ccc(SC(F)F)cc2)C1=O	-3%
Cc1ccc2c(C(=O)CN3CCN(c4ccccc4)CC3)c(C)[nH]c2c1	2%
Cc1cccc(OCC(=O)NNC(=O)c2ccc3nc[nH]c3c2)c1	5%
COc1ccc(C(=O)Nc2cc3c(cc2C(=O)O)OCCCO3)c(OC)c1	6%
CC1CCN(S(=O)(=O)c2cccc(C(=O)NCC3CCCO3)c2)CC1 (stereo not drawn)	13%
CCCc1ccc(S(=O)(=O)N2CCN(C(C)C(=O)NCc3ccccc3)CC2)cc1 (stereo not drawn)	0%
COc1cc(NC(=O)C(CC(C)C)NS(=O)(=O)c2ccc3c(c2)CCN3C(C)=O)cc(OC)c1 (stereo not drawn)	11%
Cc1cccc(CS(=O)(=O)Cc2ccc(C(=O)O)o2)c1	-10%
CC(Oc1ccccc1)C(=O)NC1CCN(Cc2ccccc2)CC1 (stereo not drawn)	-7%
CS(=O)(=O)CCC(C(=O)n1nnc2ccccc21)N1C(=O)c2ccccc2C1=O (stereo not drawn)	-1%
COC(=O)c1cc(N=Nc2sc(N)nc2C)cc(C(=O)OC)c1	-14%
CNCC(O)c1ccc(O)c(O)c1 (stereo not drawn)	?
O=C(CSc1nc2ccsc2c(=O)n1CC1CCC(C(=O)O)CC1)c1ccc(F)cc1 (stereo not drawn)	15%
CCOC(=O)c1ccc(Cl)c(S(=O)(=O)N2CCCC2)c1	-20%
O=C(NC(=S)Nc1cccc(Cl)c1N1CCCC1)c1ccc(-c2cccc([N+](=O)[O-])c2)o1	9%
Cc1ccc(S(=O)(=O)N(C)c2ccccc2C(=O)Nc2ccc3c(c2)OCCO3)cc1	-2%
CCOC(=O)C1(Cc2ccccc2C)CCCN(Cc2ccc(NC(C)=O)cc2)C1 (stereo not drawn)	-11%
CC(=O)c1ccc(NC(=O)CCc2c(C)nc3c(c2C)c(=O)n(C)c(=O)n3C)cc1	-6%
CCCCNc1c(-c2ccc(SC3CCCCC3)c(OC)c2)nc2ccc(C)cn12	-15%
Cn1cc(S(=O)(=O)Nc2ccc(F)c(Cl)c2)c(=O)n(C)c1=O	-10%
CCCCNc1nnc(Cc2ccc(Cl)cc2)c(=O)[nH]1	16%
CCN(CC)S(=O)(=O)c1ccc(C(=O)NC2=NCCS2)cc1	-10%
CN1CCC(=NNC(=O)C(=O)NC(C)(C)C)CC1	11%
COc1ccccc1N1CCN(S(=O)(=O)c2ccc3c(c2)CCCN3C(C)=O)CC1	-3%
CC(C)(C)OC(=O)N1CCN(C(=O)Cn2cc(CCO)nn2)CC1	-15%
CCOC(=O)CCCNC(=O)CN1C(=O)NC(c2ccccc2)(c2ccccc2)C1=O	23%
O=C(Nc1ccccc1N1CCOCC1)C1(c2ccc(Cl)cc2)CCC1	-16%
Cc1ccccc1N1CCN(S(=O)(=O)N(C)C)CC1	4%
C=CCn1c(SCC(=O)c2ccc(CNC(C)=O)o2)nc2scc(C3CC3)c2c1=O	-15%
O=C(COC(=O)c1cccc(NC(=O)c2ccc(Br)cc2)c1)c1ccc(Cl)cc1	-2%
Cc1ccc(-c2nc3cnccn3c2Nc2ccc3c(c2)OCCO3)o1	-1%
CSCC[C@H](NC(=O)N1C[C@H]2C[C@@H](C1)c1cccc(=O)n1C2)C(=O)Nc1ccc(NC(C)=O)cc1	-5%
CCc1cc(/C(Cc2csc(C)n2)=N/O)c(O)cc1O	6%
CC(=O)N1CCc2cc(S(=O)(=O)NC(C(=O)NCc3ccccc3)C(C)C)ccc21 (stereo not drawn)	6%
O=c1c2ccccc2nc2n1C(CSc1ccccc1)CS2 (stereo not drawn)	12%
Cc1ccccc1OCCNC(=O)CNC(=O)c1ccccc1O	2%
O=C(NCc1ccc2c(c1)OCO2)C(c1ccco1)N(C(=O)c1csnn1)c1ccccc1 (stereo not drawn)	-9%
COc1ccccc1Cn1c(=O)[nH]c2cccnc21	2%
COCCN(CCOC)c1ncnc2c1c(-c1ccccc1)cn2-c1ccc(C)c(Cl)c1	0%
CCOc1ccc(S(=O)(=O)N(CC(=O)NCCSc2ccccc2)c2ccccc2)cc1	-6%
CCOC(=O)N1CCN(c2c(NCCCN(CC)CC)c(=O)c2=O)CC1	-23%
N#Cc1c(C(F)(F)F)cc(-c2ccccc2)nc1SCc1nc(N)nc(N2CCOCC2)n1	-6%
CC(C)(C)n1nc2c(c1NC(=O)c1cc3ccccc3o1)CS(=O)(=O)C2	-4%
Cc1cc(C)c(C)c(S(=O)(=O)N2CCC(C(=O)N3CCCC3)CC2)c1C	1%
Cc1cccc(OCC(=O)Nc2cccc3nsnc23)c1	-3%
COc1ccc(C(=O)CSc2nc3cc(C(=O)NC4CCCC4)ccc3c(=O)n2CC2CCCO2)cc1 (stereo not drawn)	11%
COc1cccc([C@@H]2CC=C(C(=O)O)[C@H](c3ccc(Br)cc3)N2S(=O)(=O)c2ccc(C)cc2)c1	-4%
NC(=O)CCn1nc(-c2ccccc2)c2ccccc2c1=O	7%
COc1ccc(N2CC(C(=O)NC3CCSC3=O)CC2=O)cc1 (stereo not drawn)	4%
COc1ccccc1CN1CCC2(CC1)CCN(C(C)=O)CC2	4%

A portion of the library. The share of hits here may be higher or lower than overall.
